# Rce1 inh – yeast Rce1p protease inhibitors, primary screen, biochemical, fluorescence, cell-free homogeneous; CAAX prenyl protease 2 (Saccharomyces cerevisiae (strain ATCC 204508 / S288c)), Q03530; yeast membranes, quenched prenylated peptide cleavage fluorescence; calls only; 0.27% of 290,000 active;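 active = fall in fluorescence gain of 50% or more versus controls, with final raw signal at or below 3038400; inconclusive = same 50% fall but final raw signal above 3038400; inactive = fall in fluorescence gain under 50%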;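 note: plate controls were neutral control wells for no effect and wells lacking membranes for full effect; tested at 10 µM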
# Target sequence (Q03530 whole entry, looked up): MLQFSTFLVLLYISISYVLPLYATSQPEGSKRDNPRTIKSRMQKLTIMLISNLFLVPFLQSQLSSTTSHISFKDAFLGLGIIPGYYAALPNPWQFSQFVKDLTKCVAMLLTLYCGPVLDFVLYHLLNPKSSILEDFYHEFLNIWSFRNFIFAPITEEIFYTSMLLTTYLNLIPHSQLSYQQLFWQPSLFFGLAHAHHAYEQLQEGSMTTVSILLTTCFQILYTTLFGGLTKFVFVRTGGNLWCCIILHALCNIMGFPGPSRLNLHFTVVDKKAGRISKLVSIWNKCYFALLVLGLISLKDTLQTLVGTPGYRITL
# PABP FP inh – PABP poly(A) RNA binding inhibitors, primary screen, biochemical, fluorescence polarization, uHTS | 1% of 290,000 active | inhibition, % at 35 µM | Polyadenylate-binding protein 1 (Homo sapiens), P11940;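 active = 50% or more with normal probe brightness, or confirmed in later tests; inconclusive = above 50% with abnormal brightness, or retests that disagree; inactive = below 50% or failed in later tests; about a fifth of its hits are not listed in these tables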;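 note: calls also rest on retests at 20 µM and on dose response follow-up; controls were probe without protein and protein plus probe with vehicle; some compounds called inactive have numbers as strong as hits; many hits fall short of the cut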
# eIF4H inh – human eIF4H binding inhibitors, primary screen, translation initiation inhibitor project, biochemical, uHTS, fluorescence polarization | AID 2012, 2009 | 0.94% of 290,000 active | Eukaryotic translation initiation factor 4H (Homo sapiens), Q15056 | eIF4H fluorescence polarization binding assay | inhibition, % at 35 µM;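 active = 50% or more with normal probe brightness, or confirmed in later tests; inconclusive = above 50% with abnormal brightness, or retests that disagree; inactive = below 50% or failed in later tests; about a fifth of its hits are not listed in these tables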;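 note: calls also rest on retests at 20 µM and on dose response follow-up; 0% = protein and probe with vehicle and 100% = probe without protein; strong numbers were not always called active; many hits fall short of the cut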
# Env fusion inh – inhibitors of HIV-1 Env-driven cell-cell fusion, primary screen, HeLa-JRFL effector, CEM21 target cells, luciferase | inhibition, % at 12.3 µM | 1.1% of 360,000 active | AID 651610, 2012;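 active = mean replicate inhibition score of at least 50 and every replicate individually at or above 50; inconclusive = only one of the two criteria met; inactive = mean below 50 and not all replicates reaching 50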;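 note: 0% = plate neutral controls and 100% = maraviroc near 300 nM; one replicate is shown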
# MT1-MMP act inh – blockers of MT1-MMP proenzyme processing, primary screen, HT1080 RFP-PRO-GFP cells, GFP/RFP fluorescence. Matrix metalloproteinase-14 (Homo sapiens), P50281. GFP/RFP ratio fluorescence, overnight; percent of plate control window, DMSO zero. GFP/RFP ratio change, % at 20 µM. 0.061% of 360,000 active. AID 651647, 2012;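 active = GFP/RFP ratio change of at least 30% with cell ATP level not reduced by more than half and red fluorescence within 50% of control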; note: strong numbers were not always called active
#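 Test system: HT1080 cells expressing an RFP-PRO-GFP fluorescent reporter construct / Compound dosing: single-point 20 µM compound, 1% DMSO / Schedule: cells overnight before dosing, compound overnight, 37 °C, 5% CO2 / Evaluation: GFP/RFP fluorescence ratio / Control set: DMSO and RFP-L50D-GFP cell wells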
# CSC inhib – cancer stem cell viability inhibitors, primary screen, luminescence; cancer stem cell-like cells viability; inhibition, % at 7.5 µM; 1.1% of 300,000 active;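 active = mean at 75% or more and at least half the replicates too; inconclusive = mean and replicates disagree; tested in HMLE shEcad cells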;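 note: 0% = median of negative and 100% = median of positive control wells; the first replicate is given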
# UUG fidelity – modulators of yeast start codon fidelity, primary screen, whole organism, S. cerevisiae, single point, plate reader; 0.13% of 350,000 active; S. cerevisiae UUG-firefly luciferase reporter, luminescence/redox ratio; activity score, % at 18.7 µM; AID 602363, 2012;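 active = replicate mean at a twofold rise or more, about +100% in these data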;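 note: firefly luciferase made from a UUG start codon reports start codon fidelity; reporter light over untreated wells divided by growth signal over untreated wells; some hits fall short of that in this replicate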
# eIF4H inh retest – second read-out of eIF4H inh, no call of its own (marks repeat the call); inhibition, %; compound at 20 µM; confirmation average;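 mean of two retest wells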
# PABP FP inh retest – further read-out of PABP FP inh, marked with its call; inhibition, %; compound at 20 µM; confirmation repeats;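 mean of two retest wells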
# MT1-MMP act inh RFP – recorded beside MT1-MMP act inh, whose call it bears; RFP signal change, %; measured here: RFP expression control read;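 0 = vehicle wells; hits needed this value within 50% of zero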
# * = called active by the depositor; i = inactive; u = inconclusive; x = no result given. Not a hit list. About 2.9% of those tested had a hit in this group.
SMILES,Rce1 inh,PABP FP inh,eIF4H inh,Env fusion inh,MT1-MMP act inh,MT1-MMP act inh RFP,CSC inhib,UUG fidelity,others
CC(=O)c1cc2c(cc1NC(=O)Cc1c(C)noc1C)OCO2,x,x,x,12,0,1,-15,-10,
CC(C)c1nc2sc3c(=O)[nH]c(=S)[nH]c3c2c2c1CCC2,i,u,0,x,x,x,x,x,
CC1O[C@@H](OC2C(COC3OC(CO)C(O)[C@H](O)C3O)OC(OC3CC[C@]4(C)C(CC[C@@]5(C)[C@@H]4CC=C4[C@@H]6CC(C)(C)CC[C@]6(CO)C(O)C[C@]45C)C3(C)C)C(O)C2O)C(O)C(O)C1O (some centres undefined),x,x,x,-36,3,3,-18,19,
O=C(CSc1nnc(NC(=O)c2ccccc2[N+](=O)[O-])s1)NC1CCCC1,i,-4,4,2,0,3,-9,-16,
O=C(O)c1cccc2c1C(=O)c1ccc(-c3ccc(F)cc3OCc3ccccc3)cc1S2(=O)=O,x,x,x,x,9,-3,2,-14,
Cc1ccc(CNC(=O)C2CCCN2C(=O)Nc2ccccc2)cc1 (centres undefined),i,-6,-8,10,3,-2,-19,-6,
O=c1oc(C2(O)CCCCC2)cc2ccc(-c3ccc4[nH]ccc4c3)cc12,x,x,x,-78,5,5,x,-16,
CCCCN1CC(COc2ccccc2)Oc2cccc(F)c2S1(=O)=O (centres undefined),x,x,x,9,-3,-7,x,-8,
Nc1cc(=O)[nH]c(=S)n1-c1cccc(C(F)(F)F)c1,i,0,-3,-47,-14,-6,-14,-7,
COc1ccc(N(C(=O)Cc2cccs2)C(C(=O)NC2CCCCC2)c2cccn2C)cc1 (centres undefined),i,-13,-9,x,-9,-8,-10,-18,
CCOC(=O)C1CCN(C(=O)COc2ccc(N(C)S(=O)(=O)c3ccc(C)cc3)cc2)CC1,i,-5,4,23,4,2,-27,x,
Cc1cccc(-c2ocnc2C(=O)Nc2ccccc2NC(=O)c2ccccn2)c1,i,8,8,-10,-4,-4,19,-11,
CSc1ccc(CN2CCC(C)(Oc3ccc(C(C)=O)cc3)C2)cc1 (centres undefined),x,x,x,21,-3,-2,x,2,
O=C(CN1CCN(S(=O)(=O)c2ccc(Cl)cc2)CC1)Nc1ccc(F)cc1F,i,-6,-12,x,-1,-6,-6,-5,
O=C1c2ccccc2C(=O)N1n1c(=O)[nH]c2ccccc2c1=O,i,-9,-15,-8,-6,-5,-2,-11,
CC(C)(C)OC(=O)C[C@H]1C/C=C\C[C@H](CC(=O)N[C@H](CO)Cc2ccccc2)C(=O)N2CCC[C@H]2COC1=O,x,x,x,-6,2,0,-12,19,
CCN(c1ccccc1)S(=O)(=O)c1ccc(C(=O)NCC(c2ccccc2OC)N2CCCC2)cc1 (centres undefined),x,x,x,-11,-5,-1,x,-16,
Cc1ccc(NC(=O)CSc2ncn[nH]2)cc1S(=O)(=O)N1CCOCC1,i,-8,-5,12,7,5,-15,x,
Cc1ccc(-c2nnc(CCC(=O)N(C)Cc3nccs3)o2)s1,i,5,6,-2,4,4,-9,x,
COc1ccccc1NC(=O)c1cc2c(s1)-c1ccccc1S(=O)(=O)C2,i,3,11,0,-4,-3,-11,-15,
COCc1[nH]nc2c1C(c1ccnc3ccccc13)C(C#N)=C(N)O2 (centres undefined),i,5,-3,5,-5,0,-8,-17,
O=C(CSc1nc2ccccc2c(=O)n1-c1ccccc1)Nc1ccc2c(c1)CCC2,x,x,x,7,-10,-11,x,-13,
Cn1c(SCc2ccccc2F)nc2cccnc21,i,-2,0,-107,0,-3,5,-11,
COc1cc(/C=N/Nc2ccc([N+](=O)[O-])cc2S(=O)(=O)N2CCOCC2)cc(OC)c1OC,i,0,-5,24,-7,-2,6,-9,
C=CCn1c(C)cc(C(=O)COc2ccc(S(=O)(=O)N3CCCC3)cc2[N+](=O)[O-])c1C,i,1,5,-2,-6,-9,-13,x,
Cc1ccc(NS(=O)(=O)c2ccc3[nH]c(=O)c(=O)[nH]c3c2)cc1Cl,i,12,-3,-3,1,2,4,x,
O=C(Nc1ccccc1C(=O)NCc1ccccc1)C1=CSCCO1,i,-1,-2,-7,1,4,-7,-6,
CCOC(=O)c1sc(NN=C(C(=O)OC)C(=O)OC)c(C(=O)OCC)c1C,i,-8,-7,u,-1,3,32,x,
CCN(CC)C(=O)c1sc2nc(N3CCOCC3)c3c(c2c1N)CCCC3,i,0,-7,-61,-1,1,-5,x,
C=CCn1c(SCC(=O)N2CCOCC2)nc2sc(CC)cc2c1=O,x,x,x,x,1,-6,-4,-10,

# 2 records picked at random from the list so far:
SMILES,Rce1 inh,PABP FP inh,eIF4H inh,Env fusion inh,MT1-MMP act inh,MT1-MMP act inh RFP,CSC inhib,UUG fidelity,others
O=C(Nc1ccccc1C(=O)NCc1ccccc1)C1=CSCCO1,i,-1,-2,-7,1,4,-7,-6,
COc1cc(/C=N/Nc2ccc([N+](=O)[O-])cc2S(=O)(=O)N2CCOCC2)cc(OC)c1OC,i,0,-5,24,-7,-2,6,-9,

# More compounds:
SMILES,Rce1 inh,PABP FP inh,eIF4H inh,Env fusion inh,MT1-MMP act inh,MT1-MMP act inh RFP,CSC inhib,UUG fidelity,others
O=C(/C=C/c1ccc2c(c1)S(=O)(=O)N(Cc1ccccc1)[C@H]2CC(=O)N1CCOCC1)N1CCOCC1,x,x,x,-16,x,x,3,19,
Cc1nn(-c2ccccc2)c(C)c1/C=N/NC(=O)CSc1nc2ccccc2c(=O)n1-c1ccccc1,i,-3,-2,27,-6,-14,-3,x,
O=C(Nc1ccc(Cl)cc1Cl)c1ccc(-c2ccccc2)cc1,i,-1,-4,x,-1,4,-6,x,
CCOC(=O)c1ccc(NCn2c(=O)oc3ccccc32)cc1,i,121,108,-24,-66,12,11,-18,eIF4H inh retest=18;PABP FP inh retest=27
Cc1cc(Cl)ccc1C(=O)C1CCCN(C(=O)c2cncs2)C1 (centres undefined),i,13,-7,20,-1,-6,-7,-19,
Cc1cccc(N=Nc2c(C)[nH]n(-c3ccccc3)c2=O)c1,i,-5,3,3,8,3,5,x,
CCOC(=O)/C=c1/s/c(=C/c2ccccc2OC)c(=O)n1CC(=O)N1CCOCC1,x,x,x,5,2,0,x,1,
CC1(C(=O)NNC(=S)NCC2CCCO2)CC1(Cl)Cl (centres undefined),i,5,-1,15,0,2,-1,-21,
O=C(NC(=S)Nc1ccc2nc[nH]c2c1)c1ccccc1,i,3,1,-38,2,2,4,-12,
O=C1ON=C(c2ccccc2)/C1=C/c1ccc(-c2ccccc2[N+](=O)[O-])o1,x,3,59,-256,0,-2,54,-3,eIF4H inh retest=0;PABP FP inh retest=5
Cc1noc(C)c1CSCC(=O)Nc1ccc(S(=O)(=O)C(F)F)cc1,i,x,x,1,0,3,-17,-6,
COc1cccc(C(=O)NCC(c2ccc3c(c2)OCO3)N2CCN(c3ccc(F)cc3)CC2)c1 (centres undefined),i,x,x,4,0,-8,11,-10,
O=S1(=O)CCO[C@H]2Cc3ccccc3[C@H]2N1Cc1ccccc1,i,6,-6,x,4,0,10,-2,
COc1cccc(NC(=O)C2CC(=O)N(C)C(=Nc3cccc(F)c3)S2)c1 (centres undefined),i,-4,-4,x,8,-5,x,5,
CN=C1S/C(=C\c2cccn2-c2cccc(Br)c2)C(=O)N1C,i,x,x,-39,x,x,-5,x,
CN1CCN(C(=O)c2ccc(-c3nn(C)c(=O)c4ccccc34)cc2)CC1,i,x,x,-2,-1,2,0,-11,
O=C(c1ccco1)N1CCN(c2cc(=O)n(C3CCCCC3)c(=O)[nH]2)CC1,i,4,-9,x,2,0,2,-5,
COc1cc(SC)ccc1C(=O)Nc1nc2ccccc2[nH]1,i,-2,3,92*,-16,-7,-5,-93,
CSC(=S)N/N=C/c1c[nH]c2ccccc12,i,-6,3,-34,0,4,4,x,
N#Cc1ccccc1CSc1ccc(-c2nc3ccccc3[nH]2)cn1,i,8,-8,x,9,-17,x,x,
O=C(NCC1CC1)Nc1ccccc1,i,8,3,-4,-7,0,-8,-8,
CCN(CC)c1ccc(/C=N/n2c(-c3ccccc3Br)n[nH]c2=S)cc1,i,-6,16,10,-2,-5,-8,-11,
O=C(c1cccc(S(=O)(=O)N2CCCCC2)c1)N1CCCCC1,x,-15,-4,9,6,2,-1,-16,
COC(=O)c1cn(NC(=O)/C=C/c2ccc(OC)c(OC)c2)c(=O)c2ccccc12,i,1,-2,-14,4,2,-16,8,
CCNC(=O)c1sc2cc(C)ccc2c1Cl,i,-5,-1,-57,1,5,-2,1,
C=CCOc1cccc(C2C(C(=O)c3ccco3)=C(O)C(=O)N2CCN2CCOCC2)c1 (centres undefined),i,9,-1,x,-4,3,-7,-2,
Cc1onc(-c2ccccc2Cl)c1C(=O)NCCn1ccc2ccccc21,i,-2,-8,x,-6,-3,-4,-3,
CC1(C)Cc2c(C#N)c(N3CCN(C(=O)c4ccccc4Cl)CC3)nc(-c3ccco3)c2CS1,i,u,u,x,-16,3,-8,x,
COc1ccc(C(C)NC(=O)C2CCCC2)cc1 (centres undefined),i,-5,6,6,-1,-1,-7,2,
C#CCOCCOCCOCCNc1nc(N2CCN(C(=O)[C@H](C)n3cc(CCCN=C(N)N)nn3)CC2)nc(N2CCN(C(=O)[C@H](C)n3cc(CCCN=C(N)N)nn3)CC2)n1,i,8,36,-81,3,4,-5,0,
CCS(=O)(=O)Nc1ccc(-c2nnc(SCC(=O)OC)o2)cc1,i,-4,-1,x,-2,4,-8,-6,
NS(=O)(=O)c1ccc(CCNC(=O)COc2ccc3c4c(c(=O)oc3c2)CCC4)cc1,i,x,x,-13,-6,-3,-3,-2,
Cc1ccc(S(=O)(=O)NCC(=O)NCC(=O)NCCc2ccc(Cl)cc2)cc1C,x,x,x,-12,3,-2,x,0,
CSc1ccccc1NC(=O)N1CCCC(C(=O)c2ccc3c(c2)OCO3)C1 (centres undefined),i,-4,2,6,-2,1,-6,-2,
CC(C)(C)c1nnc(NS(=O)(=O)c2cc(Cl)ccc2Cl)s1,i,-4,-11,-69,0,0,11,-14,
O=C1C2=C(SCCS2)C(=O)N1c1ccccc1,i,41,7,-12,-5,1,-6,-5,
COc1ccccc1Oc1cc(-n2nc(C)cc2C)ncn1,i,-10,6,45,1,-1,-11,-13,
Nc1cc(OC(=O)c2ccco2)nn1S(=O)(=O)c1ccc(F)cc1,i,4,1,5,2,4,-14,10,
COc1ccc(CCN2C(=O)CC(NC34CC5CC(CC(C5)C3)C4)C2=O)cc1OC (centres undefined),i,18,-1,2,-1,-10,19,x,
N#CC1=C(N)C2=CCCC[C@H]2[C@H](c2ccc(Br)cc2)C1(C#N)C#N,x,10,51,x,-25,2,1,x,eIF4H inh retest=10;PABP FP inh retest=-2
COc1ccc(S(=O)(=O)NCC(c2cccnc2)N2CCN(c3ccccc3OC)CC2)cc1C (centres undefined),x,0,-2,x,3,-1,x,-8,

# Screens deposited in PubChem by several laboratories.
